From PubChem
gsp antag: antagonists of gsp mutant (McCune-Albright syndrome); 0.4% of 340,000 active; gsp-mutant cells, cAMP HTRF, 30 min; control for the full effect not named in the record; AID 624288; Potency, µM (highest dose often 76.9 µM), inactives show at the highest dose activity change, negative = inhibition, usual class: inhibitors; active = falling curve of any shape with a large fitted effect; inconclusive = falling curve, mostly with a smaller effect; inactive = flat or rising curve; cell line not stated here;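 note: intracellular cAMP measured with PDE inhibitor Ro 20-1724 present during compound exposure; potency is the fitted concentration of half-maximal effect; % is set by controls: 0 for no effect and ±100 for the full control effect; nearly all actives have a fitted effect of over 65% in size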
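HTRF cAMP measurement after 30 min RT detection following 30 min, 37C compound treatment alongside […] (added as 300 uM solution) in G418-selected cells seeded at 2000/well and grown 16–24 h.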
Sfp inh: Sfp phosphopantetheinyl transferase inhibition | Biochemical Sfp PPTase activity, qHTS | Potency, µM, without a hit: max response, negative = inhibition, most hits filed as inhibitors | 3.5% of 310,000 active | AID 1490; active = well fitted inhibition curve with a large enough effect; inconclusive = small, poorly fitted or top-dose-only effect, or another doubt; inactive = no such curve, though single readings can be large or run the other way;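 note: the enzyme is Sfp with the accession as filed and its product quenches rhodamine fluorescence; potency is the fitted concentration of half-maximal effect; 0% = enzyme reaction without inhibitor and -100% = no enzyme wells; top concentration of the series not given in the record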
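Fluorescence-quenching assay: 15 nM Sfp-PPTase preincubated 15 min at room temperature with compound, then 5 uM rhodamine-CoA and 12.5 uM BHQ-2-labelled YbbR peptide added. Fluorescence (ex 525/em 598 nm) read at start and after 30 min; difference gives rate.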
CtBP-E1A blk: CtBP/E1A binding inhibition | AlphaScreen GST-E1A/His-CtBP binding, 1536-well; hits give low values; control for the full effect not named in the record | 0.49% of 340,000 active | AID 651724 | activity change, % (test concentration not listed); in the data active means activity change below about -65%; inconclusive means about -30% to -65%; inactive means above about -30%; note: % is set by controls: 0 for no effect and ±100 for the full control effect; compound concentration not given in the record
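In 5 uL wells, 23 nL compound meets equimolar GST-E1A and His-CtBP (5X stock 125 nM each) for 2 h, 37 °C. Beads (5X, 50 ug/mL) then 1 h, 37 °C, dark.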
gsp ag: gsp mutant agonism; AID 624287; Potency, µM (top dose mostly 76.9 µM), inactives show at the highest dose activation (cAMP increase), hits mostly activators; gsp mutant cells, cAMP HTRF, 30 min; control for the full effect not named in the record; 0.13% of 340,000 active; active = well fitted activation curve with a large enough effect; inconclusive = small, poorly fitted or top-dose-only effect, or another doubt; inactive = no such curve, though single readings can be large or run the other way; cell line not stated here;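 note: phosphodiesterase inhibitor Ro 20-1724 added with compounds to block cAMP breakdown; potency is the fitted concentration of half-maximal effect; nearly all actives have a fitted effect of over 60% in size; about a fifth of the inactives were tested at one dose only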
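Cells in DMEM/10% FBS with G418 were pretreated with compounds in DMSO plus […] (300 uM stock) for 30 min at 37C. cAMP was measured by HTRF (cAMP-d2 plus anti-cAMP antibody-K) after 30 min at room temperature.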
Menin-MLL FL inh: menin-MLL binding inhibition, fluorescein peptide. 290,000 tested, under 10 active. AID 1766. FP activity change, % at 61.4 µM. Fluorescence polarization, fluorescein-MLL peptide displacement from menin; inconclusive = falling polarisation curve, or a change in total fluorescence; inactive = total fluorescence flat and polarisation flat or rising; no compound was filed as active; the % refers to the polarisation; negative = inhibition;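 note: % of control where 0% means no effect; inhibitors lower the polarisation; unlabelled MLL peptide was the positive control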
ClpP mod: qHTS Assay for Activators of ClpP; purified B. subtilis ClpP, FRET peptide cleavage, 20 min; AID 651965, 2013; 1.9% of 340,000 active; ATP-dependent Clp protease proteolytic subunit (Bacillus subtilis (strain 168)), P80244; Potency, µM (titrated, usually from 57.5 µM), without a hit: at the top dose activity change, negative = active; active = well fitted falling curve with a large enough effect; inconclusive = small, poorly fitted or top-dose-only effect; inactive = no such curve, though single readings can be large or run the other way; note: potency is the fitted concentration of half-maximal effect; the source files actives as falling curves though it sought activators and does not explain the sign; nearly all actives have a fitted effect of over 65% in size; many hits overshoot -100%
Target sequence (P80244 whole entry, looked up): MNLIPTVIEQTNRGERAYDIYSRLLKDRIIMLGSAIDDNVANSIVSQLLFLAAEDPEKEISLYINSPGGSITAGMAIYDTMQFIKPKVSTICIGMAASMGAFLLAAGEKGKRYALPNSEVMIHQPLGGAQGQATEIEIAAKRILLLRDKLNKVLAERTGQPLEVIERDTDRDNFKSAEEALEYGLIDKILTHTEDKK
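Purified B. subtilis ClpP, 10 microg/mL final in Tris/HCl pH8 with KCl, BSA, glycerol and Tween-20, cleaved an Abz/nitrotyrosine-quenched decapeptide. Fluorescence (ex 320, em 430) was read at 0 and 20 min at room temperature. Delta was normalized to 5.8 microM ADEP and DMSO/no-enzyme controls.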
TRPV1 potentiator: potentiators of human vanilloid receptor 1 (TRPV1); Q8NER1; TRPV1-expressing cells, Fluo-8 calcium influx, capsaicin EC20 potentiation; host cell line not named in the record; control for the full effect not named in the record; potentiation, % at 8.33 µM; 0.02% of 320,000 active; AID 540277; active means potentiation above 80%; inconclusive means 30% to 80%; inactive means below 30%; note: 0% is about no effect
Target sequence (Q8NER1 whole entry, looked up): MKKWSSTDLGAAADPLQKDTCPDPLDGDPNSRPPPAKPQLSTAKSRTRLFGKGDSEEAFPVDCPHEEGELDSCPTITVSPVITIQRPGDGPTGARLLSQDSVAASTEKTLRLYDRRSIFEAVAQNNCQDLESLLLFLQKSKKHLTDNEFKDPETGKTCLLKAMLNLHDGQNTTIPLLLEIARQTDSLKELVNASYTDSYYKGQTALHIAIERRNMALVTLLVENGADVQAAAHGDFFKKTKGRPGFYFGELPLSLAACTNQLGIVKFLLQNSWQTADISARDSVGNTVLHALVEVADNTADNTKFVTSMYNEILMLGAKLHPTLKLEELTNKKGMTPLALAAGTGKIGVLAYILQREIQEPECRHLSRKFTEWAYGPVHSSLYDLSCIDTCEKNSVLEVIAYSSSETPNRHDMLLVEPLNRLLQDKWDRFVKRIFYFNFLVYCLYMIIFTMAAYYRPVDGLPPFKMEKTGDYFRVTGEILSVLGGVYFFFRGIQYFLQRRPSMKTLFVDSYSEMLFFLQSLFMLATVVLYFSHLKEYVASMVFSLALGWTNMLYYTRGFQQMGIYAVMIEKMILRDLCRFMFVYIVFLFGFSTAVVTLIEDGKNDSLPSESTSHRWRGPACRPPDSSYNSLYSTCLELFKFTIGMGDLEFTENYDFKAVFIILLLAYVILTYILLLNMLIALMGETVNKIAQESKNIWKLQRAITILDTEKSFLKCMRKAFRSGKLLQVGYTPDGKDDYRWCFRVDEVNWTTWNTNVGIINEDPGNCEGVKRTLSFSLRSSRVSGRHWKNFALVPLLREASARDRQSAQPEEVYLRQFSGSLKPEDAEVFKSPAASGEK
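TRPV1-expressing cells were cultured overnight at 35.5C and loaded with Fluo-8 calcium dye for 40 to 90 min at room temperature. After a 10 s baseline, compound was added and calcium influx was read kinetically for 3 min (ex 480/em 520 nm).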
* hit, by the source's call; u = inconclusive; x = not tested or not shown; [ ] = dose if it differs, or a comment.

Results follow in this order: gsp antag, Sfp inh, CtBP-E1A blk, gsp ag, Menin-MLL FL inh, ClpP mod, TRPV1 potentiator
> Cc1ccc(N2CC(C(=O)Nc3cccnc3)CC2=O)cc1 (centres undefined)
  12.1%, 7.4%, 0.5, -63.5%[inhibitor], 0.6, -3.0%, -1.2
> Cc1ccc(NC(=O)CN(c2cc(C)cc(C)c2)S(=O)(=O)c2c(C)noc2C)nc1
  -12.7%, 3.8%, 0.9, 1.3%, 0.9, -0.3%, x
> CN(C)c1ccc(-n2cccc2/C=C2/SC(=Nc3ccc(F)cc3)NC2=O)cc1
  -1.8%, 6.4%, 7.5, 8.4%, 10.7, -0.4%, 3.0
> O=c1c2ccccc2n2c(-c3ccc(F)cc3)nnc2n1Cc1ccccc1
  -5.7%, -17.7%, -5.7, u, 6.6, -7.6%, 2.3
> O=C1CN(S(=O)(=O)c2ccccc2)CCN1S(=O)(=O)c1ccccc1
  -6.9%, 1.2%, 1.7, -4.7%, 4.4, -1.7%, -7.9
> Cc1cccc(C(=O)Nc2ccc(N3CCN(S(C)(=O)=O)CC3)cc2)c1
  1.0%, 6.1%, 4.3, -0.5%, 7.8, x, -3.5
> CC(C)(C)c1ccc(C(=O)NCc2ccccc2)cc1
  -1.8%, 6.9%, -0.4, -11.8%, 4.0, -0.7%, -12.2
> CC(=O)c1cc(-c2ccccc2)n(CC(=O)Nc2cccc(C)c2C)c1C
  -7.3%, 2.7%, 3.7, -39.0%, -1.8, -1.4%, -0.7
> Cc1n[nH]c(C)c1S(=O)(=O)N1CCN(S(=O)(=O)c2ccccc2C#N)CC1
  4.1%, x, x, u, x, -0.7%, 2.4
> COc1cc(OC)c(C(=O)Nc2ccc3ccccc3c2)cc1OC
  -15.5%, -5.1%, 0.4, 7.0%[15.4 µM], -4.8, -8.4%, 9.0
> COc1cccc(/C(C)=N/Nc2ncc(Cl)cc2Cl)c1
  -3.1%, 56.2µM*, 2.5, 9.4%, 3.9, -5.0%, -5.6
> CCOc1ccc(C(C)=O)cc1Cc1c(O)nc(N)[nH]c1=O
  x, 5.8%, x, x, 8.6, x, 10.6
> O=C(N=Nc1c(O)[nH]c2ccccc12)c1ccccc1NS(=O)(=O)c1cccs1
  -14.2%, -3.8%, u, 9.5%, 2.9, -3.0%, -19.2
> Cc1cc(C)c2nc(SCC(=O)NC(=O)c3cccn3C)cc(C)c2c1
  x, -12.3%, -11.5, -21.6%[15.4 µM], -0.2, x, 4.3
> CC1CCCCN1C(=O)CCNC(=O)Cn1cnc2ccccc2c1=O (centres undefined)
  9.9%, -3.1%, 22.5, -8.8%[15.4 µM], 3.0, -1.4%, 8.2
> Cc1cc(N2CCCCC2)nc2c(C)cccc12
  5.9%, 0.3%, 59.0, -3.6%[15.4 µM], -1.6, 0.9%, 13.8
> Cc1ccccc1NS(=O)(=O)c1ccc(C(=O)N2CCCC2)cc1
  1.4%, x, -1.2, 4.9%, x, -1.2%, 6.6
> Cc1ccc(S(=O)(=O)N[C@H](C(=O)OCC(=O)NC(=O)C2CCCCC2)C(C)C)cc1
  -4.1%, x, 2.0, -42.6%[inhibitor], x, -0.4%, x
> Cc1onc(-c2c(Cl)cccc2Cl)c1C(=O)Nc1ccc(N2CCOCC2)cc1
  -3.8%, 6.8%, 3.7, -7.6%[15.4 µM], 2.2, -0.7%, -10.7
> C[C@H]1CN([C@@H](C)CO)C(=O)CCCn2cc(nn2)CO[C@@H]1CN(C)C(=O)Nc1ccc(N2CCN(C)CC2)cc1
  x, x, 6.7, u, x, 0.8%, x
> COc1ccc(/C=C/C(=O)OCC(=O)N2c3ccccc3CC2C)c(OC)c1 (centres undefined)
  x, x, 5.9, -5.6%, x, 55.9%, x
> C[C@H](CO)N1C[C@H](C)[C@@H](CN(C)Cc2cncnc2)Oc2cc(Br)ccc2S1(=O)=O
  x, x, -4.2, -8.5%, x, -0.6%, x
> CC1=C(C(=O)OCCOC(C)C)C(c2cccc3ccccc23)NC(=O)N1 (centres undefined)
  -3.7%, x, -12.1, -1.4%[15.4 µM], x, -2.6%, x
> O=C(Nc1ccc2c(c1)ncn2C1CCCCC1)c1ccco1
  -2.6%, -17.5%, 4.9, -21.2%, -2.4, 1.3%, -10.0
> Cc1ccc(C(=O)CCC(=O)Nc2cccnc2)cc1C
  3.1%, 10.5%, 3.0, 7.3%, 2.7, 2.7%, -16.9
> CCOc1ccc(C(=O)OCC(=O)N2CCCC2)cc1OCC
  7.1%, 10.6%, 3.9, 2.1%[15.4 µM], 3.1, x, 4.8
> O=c1c2ccccc2oc2cc(NCCCN3CCOCC3)ccc12
  2.1%, 17.6%, -22.1, x, 4.2, 4.1%, -16.7
> CCC/C(O)=C1\C(=O)CC(c2ccccc2)CC1=NCCc1c(C)[nH]c2ccc(C)cc12 (centres undefined)
  u, -3.0%, -3.9, 28.4%, 4.1, -7.5%, 29.2
> O=C(NC(=S)Nc1ccccc1Br)c1cccnc1
  -4.3%, u, x, -20.1%, -1.4, 2.4%, -24.3
> Cc1ccc(S(=O)(=O)Oc2cc(N)c3c(n2)CCC3)cc1
  0.2%, 6.2%, 0.0, 3.4%, -5.2, x, u
> O=C(N/N=C/c1ccc(OC(=O)c2cccs2)cc1)c1cccc(F)c1
  3.6%, -15.2%, -0.1, -36.8%, -1.2, -2.8%, 19.5
> CN(C)S(=O)(=O)c1cccc(NC(=O)COC(=O)c2cc(=O)c3ccccc3o2)c1
  -3.3%, 4.0%, x, 6.0%, -1.2, -2.8%, -9.2
> CN1CCN(C(=O)c2cc3nc(-c4ccco4)cc(C(F)(F)F)n3n2)CC1
  4.6%, 17.3%, -12.8, 18.1%[15.4 µM], 0.6, x, 5.3
> Cc1ccc(C(=O)c2nccn2C)cc1C
  5.7%, -7.1%, 3.4, 24.2%, 4.9, x, 1.6
> Cc1cc(=O)oc2cc(OCC(=O)N/N=C/c3ccccc3O)ccc12
  11.8%, -13.9%, -2.6, u, 4.9, x, -3.9
> N#CCC(=O)Nc1ccccc1C(=O)O
  -1.9%, 20.0%, 2.3, u, 5.3, -4.2%, 3.8
> CC(=O)Nc1n[nH]c(-c2ccc(C)cc2)c1C
  12.2%, 18.4%, 8.8, -18.6%, 1.7, 0.7%, 8.0
> CCO[C@@H]1OC(C(=O)Nc2ccccc2)=C[C@H](c2coc3ccccc3c2=O)[C@H]1CCCO
  -9.6%, 7.7%, 1.5, x, -0.4, -0.5%, -0.3
> Cc1ccccc1NC(=O)CCn1c(=O)oc2ccccc21
  0.1%, 9.5%, 5.2, -2.9%, 0.6, 0.5%, -9.5
> O=C(Nc1ccccc1C(=O)Nc1nnc(C(F)(F)F)s1)c1ccccc1
  u, 2.0%, 5.6, -0.6%[15.4 µM], -1.1, x, 2.0
> Cc1ccc(-c2csc(NC(=O)CN3CC(C)OC(C)C3)n2)cc1 (centres undefined)
  -0.8%, 5.2%, -13.7, 3.4%[15.4 µM], 5.7, -1.6%, 4.4
> CC(=O)c1ccc(NC(=O)C(C)NCc2ccc(Cl)cc2)cc1 (centres undefined)
  -5.1%, 3.5%, 4.2, u, -3.4, 2.2%, -6.9
> Cc1nc2c(C)cccn2c1C(=O)c1ccccc1
  -4.4%, -7.1%, -2.4, -25.4%, -2.2, -1.0%, -11.0
> CC(C)CC1C(=O)N(Cc2cn(CCC3OCCO3)nn2)CCS(=O)(=O)N1Cc1ccc(-c2ccncc2)cc1 (centres undefined)
  x, x, 0.6, -19.0%, x, -13.3%, x
> O=C(NCCCn1ccnc1)c1cccc(S(=O)(=O)Nc2ccccc2F)c1
  8.7%, 8.6%, 5.7, -12.1%, -1.2, -0.5%, 11.0
> Cc1ccc(OCC(=O)c2cc(C)c(C)cc2C)c([N+](=O)[O-])n1
  -5.1%, -20.7%, -0.9, 20.8%, -0.6, 1.1%, -12.1
> Cc1cc(O)cc(O)c1C=NCc1ccco1
  -6.0%, u, -9.7, -1.2%, 2.7, -0.8%, 5.0
> COc1ccc(OCc2nc3c4cc(OC)c(OC)cc4nc(=S)n3[nH]2)cc1
  -16.4%, -1.8%, 0.0, 5.8%[15.4 µM], 0.3, 0.7%, 20.4
> Cc1cccc(N2CCN(c3cc(C)nc4nnnn34)CC2C)c1 (centres undefined)
  -3.6%, -9.9%, -0.5, -62.9%, 2.5, -2.8%, -11.5
> O=C(CCc1ccc(S(=O)(=O)NC2CCCCC2)cc1)NCc1ccccc1
  2.5%, -3.7%, -4.5, -3.3%, -0.3, 2.5%, -1.8
> CCOC(=O)c1c(C)n(C)c2cc(Br)c(O)c(O)c12
  -4.9%, 79.4µM*, -1.3, 0.4%, 1.1, 0.7%, 9.6
> Cc1nn(-c2ccccc2)c(C)c1C(=O)NCc1ccc(S(N)(=O)=O)cc1
  -0.7%, -0.3%, 3.0, 13.0%[15.4 µM], x, x, -20.0
> Clc1cccc(Cl)c1CSc1nnc(-c2sccc2-n2cccc2)o1
  -1.7%, -6.6%, -1.5, 3.1%, 5.9, -11.2%, -4.1
> Cc1ccc(N=C2SC(C(=O)Nc3ccc(OC(F)(F)F)cc3)C(N)=C2C(=O)Nc2c(C)cc(C)cc2C)cc1 (centres undefined)
  6.7%, 22.0%, -0.7, 3.1%[15.4 µM], 4.6, u, 12.1
> COc1ccc(-c2coc3cc(OC(C)=O)ccc3c2=S)cc1
  -27.8%, x, -20.3, u, x, x, x
> Cc1c(NC(=O)CC(=O)Nc2c(C)n(C)n(-c3ccccc3)c2=O)c(=O)n(-c2ccccc2)n1C
  2.8%, 15.9%, 9.8, 7.4%, 1.8, -0.7%, -6.7
> COC(=O)C/C(O)=C(/N=Nc1cccc(C(F)(F)F)c1)C(=O)OC
  8.0%, -5.7%, -6.8, 12.4%, -0.6, x, 7.3

The order is random, and some 5.3% of all compounds hit somewhere here.
